Screening results as filed in PubChem BioAssay.
H5N1 antiviral = antiviral screen in MDCK cells, H5N1 avian flu | cytopathic effect, luminescence, 72 h; active compounds read high; no value below 0 was filed and about half of the inactive calls have no number; reference of the scale not given here | inhibition, % at 50 µM | 0.07% of 96,000 active; in the data active = inhibition above about 25%
An asterisk follows results filed as active; i = inactive.

structure	H5N1 antiviral
C=CCSC1=C(C#N)C(c2ccc(OCC)cc2)CC(=O)N1 (stereo not drawn)	i
CCn1c(=O)cc(OCC(=O)NCCCN2CC(C)CC(C)C2)c2ccccc21 (stereo not drawn)	i
Cc1cc(C)nc(SCc2ccc(C(=O)O)o2)n1	0.8
C/C(Cl)=C/CN1C(=O)C2C3C=CC(C3)C2C1=O (stereo not drawn)	0.2
COCCCNC(=O)c1cccc(C(=O)NCCCOC)c1	i
Cc1ccc(C2=[N+]([O-])C3(CCCCC/C3=N\NC(N)=S)N(O)C2(C)C)o1 (stereo not drawn)	i
COc1ccc(C(c2nnnn2CC2CCCO2)N2CCN(c3cccc(C)c3C)CC2)cc1 (stereo not drawn)	i
CCCn1c(C)cc(C(=O)COC(=O)c2c(C)nn(-c3ccccc3)c2C)c1C	0.2
Cc1ccc(CNC(=O)c2cn(C3CCCCC3)c(=O)c3c2c2ccccc2n3C)o1	i
O=C(CSc1nccc(=O)[nH]1)N1c2ccccc2CCc2ccccc21	0.7
CCOC(=O)CSc1nc(N(C)C)nc(N(C)C#N)n1	i
c1coc(CNc2ncnc3nc[nH]c23)c1	0.5
O=C1C(Cl)=C(NCC2CCCO2)C(=O)N1c1ccccc1 (stereo not drawn)	0.8
O=C1CCCCCC1C1(O)C(=O)Nc2ccc(Br)cc21 (stereo not drawn)	i
CCSc1nnc(N(CCC#N)CCC#N)s1	i
COc1ccc(CCNC(=S)Nc2cc(C)ccc2C)cc1	i
Oc1ccc(N2CCN(C(c3cccs3)c3nnnn3CCc3ccccc3)CC2)cc1 (stereo not drawn)	i
C=CCn1c(SCC(=O)NC2CCCCC2)nnc1C(C)NC(=O)c1cccs1 (stereo not drawn)	i
O=C(c1cccnc1)N1CCc2ccccc21	0.7
O=C1C=C(c2ccccc2)CC(c2cccs2)C1n1cnc([N+](=O)[O-])c1 (stereo not drawn)	3.7

Sorted by number of heavy atoms (rising): 3 of the compounds above.
structure	H5N1 antiviral
O=C(c1cccnc1)N1CCc2ccccc21	0.7
O=C1CCCCCC1C1(O)C(=O)Nc2ccc(Br)cc21 (stereo not drawn)	i
Oc1ccc(N2CCN(C(c3cccs3)c3nnnn3CCc3ccccc3)CC2)cc1 (stereo not drawn)	i

The list goes on:
structure	H5N1 antiviral
CC(=O)Nc1ccc2nc(SCC(=O)O)sc2c1	0.8
Cc1ccc(N2CN=c3s/c(=C\c4ccccn4)c(=O)n3C2)cc1	1.1
CC(C)c1ccc(/C=C/C(=O)NNC(=O)c2cccnc2)cc1	1.5
COc1ccccc1CCNC(=O)CCn1c(=O)oc2ccccc21	1.4
Cc1ccc(S(=O)(=O)CCC(=O)N2CCc3ccccc32)cc1	1.1
Cc1cc(NCCCn2ccnc2)n2nc(C)c(-c3ccc(Cl)cc3)c2n1	i
Cc1cc(C)cc(NC(=O)C2CCN(c3nc(C)cc(C)n3)CC2)c1	0.6
Cc1cccc(-c2ccc(C=Nc3c(C)n(C)n(-c4ccccc4)c3=O)o2)c1	i
Cc1ccc2nc(-c3cccc(NC(=O)c4ccc5c(c4)OCCO5)c3)oc2c1	0.8
COC(=O)c1c(NC(=O)CCCC(=O)O)sc(C)c1C	i
O=C(O)CC1C(=O)NCCN1C/C=C/c1ccccc1 (stereo not drawn)	0.1
CCCCN1CC(O)=C(c2nc3ccccc3s2)C1=N	i
CC(=O)c1ccc(N2C(=O)C3C(C2=O)C(C(=O)c2ccc(Cl)cc2)N2CCCC32)cc1 (stereo not drawn)	1.7
CC(C)(C)c1ccc(S(=O)(=O)n2c(CN3CCOCC3)nc3ccccc32)cc1	0.3
COc1ccc(N2C(=O)CC(N3CCN(C4CCc5ccccc5C4)CC3)C2=O)cc1 (stereo not drawn)	i
COc1cccc(C(c2sc3nc(C)nn3c2O)N2CCN(c3ccccc3F)CC2)c1 (stereo not drawn)	0.2
COc1ccc(C2=NOC(C(=O)Nc3cccnc3)C2)cc1 (stereo not drawn)	i
O=C(CCSc1ccccc1)Nc1ncccn1	i
CCOc1cc(/C=C2\C(=O)N(c3ccc(C(N)=O)cc3)N=C2C)ccc1OC(=O)c1cccs1	i
COC(=O)c1ccccc1NC(=O)C1CC(c2ccccc2O)=NO1 (stereo not drawn)	1.3
COc1ccc(NS(=O)(=O)c2cccc3nsnc23)cc1OC	0.1
O=C(NN1CCOCC1)c1cc(-c2cccc(Cl)c2)nc2ccccc12	1.7
CCOc1ccc(C(=S)NC2CCCCC2)cc1OC	i
CC1(C)CC(=O)N(CC(=O)NC2CCCC2)c2ccccc2S1(=O)=O	i
COC(=O)c1cccc(NC(=O)NC23CC4CC(CC(C4)C2)C3)c1	i
Cc1nn2c(c1-c1ccccc1)NC1=C(C(=O)CCC1)C2c1ccccc1 (stereo not drawn)	i
CCCn1cc(SCC(=O)NCc2ccc3c(c2)OCO3)c2ccccc21	1.9
Cc1nc2c(=O)oc3ccccc3c2n1-c1ccccc1	4.0
CCCCC1(C)Nc2ccccc2-c2nc3ccccc3n21 (stereo not drawn)	0.5
COc1ccc(CN(C(=O)Cc2cccs2)C(C(=O)NC2CCCC2)c2ccncc2)cc1 (stereo not drawn)	i
c1ccc(-c2nc(N3CCOCC3)c3ccccc3n2)nc1	2.0
Cc1ccc(S(=O)(=O)NCCNC(=O)N2CCOCC2)cc1	0.1
CCN(CCCNC(=O)c1[nH]c(C)c(C(C)=O)c1C)c1cccc(C)c1	i
O=C(O)c1cccc(S(=O)(=O)N2CCOCC2)c1	1.1
O=C(CSc1ccc(Cl)cc1)Nc1cccc(NC(=O)c2ccco2)c1	i
O=C(c1cccs1)N1C2CCC1CC(O)(c1cccnc1)C2 (stereo not drawn)	i
CCN(CC)CCNCC(=O)Nc1ccc(Cl)cc1C(=O)c1ccccc1	i
CC(C)c1ccc(NC(=S)NCc2cccs2)cc1	i
C=CCNCc1cccn1-c1sc2c(c1C#N)CCCC2	1.0
Cc1ccc2c(c1)-c1c(cnn1CC(=O)N1CCCN(Cc3ccccc3F)C1)CO2	i

3 compounds drawn at random from the list so far, as already listed:
structure	H5N1 antiviral
C=CCNCc1cccn1-c1sc2c(c1C#N)CCCC2	1.0
O=C(c1cccs1)N1C2CCC1CC(O)(c1cccnc1)C2 (stereo not drawn)	i
O=C(CSc1ccc(Cl)cc1)Nc1cccc(NC(=O)c2ccco2)c1	i

Next part.
structure	H5N1 antiviral
Cc1cc(N2C(=O)C(=O)/C(=C(/O)c3ccccc3)C2c2cccs2)no1 (stereo not drawn)	1.0
O=C(CSc1nnc(-c2ccco2)o1)N1CCOCC1	2.8
CCn1c(-c2ccc(F)cc2)cnc1SCC(=O)N1CCCCC1C (stereo not drawn)	0.5
O=C(Nc1ncc([N+](=O)[O-])s1)C1CCN(S(=O)(=O)c2cnc[nH]2)CC1	0.2
CC(C)(C)C(=O)C(Oc1cccc2nonc12)n1cncn1 (stereo not drawn)	0.2
Cc1cccc(NC(=S)NN(Cc2ccccc2)c2ccccc2)c1C	0.8
Cc1ccc(C(=O)N2CCN(c3ccc(C(F)(F)F)cn3)CC2)cc1	i
COc1ccc(OCC(=O)N2CCN(C(=O)Cc3ccccc3)CC2)cc1	i
CCOc1ccccc1NC(=O)CN1CCC(NC(=O)c2ccccc2)CC1	i
O=C1c2ccccc2S(=O)(=O)N1CCOc1ccccc1	0.5
CC1CCN(S(=O)(=O)c2cccc(C(=O)NCc3cccs3)c2)CC1	0.5
Cc1cc(C)cc(NC(=O)N2CCC(NC(=O)c3ccc(F)cc3)CC2)c1	0.1
CC(C)n1c(N2CCN(C(=O)c3cccs3)CC2)nc2ccccc21	0.5
CCOc1ccc(C(=O)Nc2c3c(nn2-c2cccc(C)c2C)CS(=O)C3)cc1 (stereo not drawn)	0.3
O=C(Nc1ccc(-c2nc3ccccc3[nH]2)cc1)c1ccc2c(c1)OCO2	1.0
CC(C)N1C(=O)C(Cc2nc3ccccc3c(=O)n2-c2ccccc2)c2ccccc21 (stereo not drawn)	i
FC(F)(F)c1ccc(N2CCN(c3ncnc4c3nnn4Cc3ccccc3)CC2)nc1	0.4
COC(=O)C1=C(C)N(C)C(=O)NC1c1ccccc1 (stereo not drawn)	i
CCn1c(CNC(=O)COc2c(C)cccc2C)nnc1SCC(=O)Nc1nccs1	1.3
COc1cccc2c1OC1(C)CC2NC(=O)N1c1cccc(C(=O)Nc2ccc3c(c2)OCCO3)c1 (stereo not drawn)	i
CCCCNc1ncnc2c1cnn2-c1ccccc1	i
CCC(=O)N1CC(=O)Nc2ccc(F)cc2C1c1ccccc1 (stereo not drawn)	1.1
COC(=O)c1cc(=O)n(Cc2ccc(OC)c(OC)c2)c(=Nc2ccc(F)cc2)s1	i
COc1ccc2oc(=O)c(C(=O)n3ccc(C)n3)cc2c1	i
Clc1ccc(NCc2nnc3n2CCCCC3)cc1	0.1
Cc1ccc(-c2nnc(OCCN3CCOCC3)c3ccccc23)cc1	i
O=C(NCc1nc(-c2ccccc2)no1)c1ccc(Br)o1	i
CN1CCN(c2cc(=O)n(Cc3ccc(F)cc3)c(=O)[nH]2)CC1	1.5
Cc1ccc(SCCNC(=S)Nc2cc(C)ccc2C)cc1	i
CCN1/C(=C(\O)c2ccccc2)C(=O)c2ccccc2S1(=O)=O	0.1
Cc1ccc(-c2nnn(CC(=O)N(CC(=O)NC(C)C)c3cnc4ccccc4c3)n2)o1	0.1
Cc1ccccc1-n1c(N)cc(=O)[nH]c1=S	i
COc1ccccc1CNC(=O)C(CC(C)C)NS(=O)(=O)c1ccc2c(c1)oc(=O)n2C (stereo not drawn)	1.3
O=C(CCn1[nH]c(=O)c2ccccc2c1=O)N1CCOCC1	0.2
CCOC(=O)N1CCC(N(C(=O)Nc2cccc(OC)c2)C(C)CC)CC1 (stereo not drawn)	0.8
Cc1nc2ccccc2c2oc(C(=O)N3CCc4ccccc4C3)cc12	0.0
CCN(C(=O)c1cc2ccccc2oc1=O)c1ccccc1	i
O=S(=O)(Nc1nc2c(s1)CCCC2)c1ccc(F)cc1	0.6
O=C(O)CSC1CC(=O)N(c2ccc(Cl)c(Cl)c2)C1=O (stereo not drawn)	0.0
C/C(N)=C(/C#N)C(=O)COC(=O)CSc1ccccc1	i

In a second layout: results already given
> Cc1ccc(S(=O)(=O)NCCNC(=O)N2CCOCC2)cc1
- H5N1 antiviral: 0.1
> CCOC(=O)CSc1nc(N(C)C)nc(N(C)C#N)n1
- H5N1 antiviral: i
> CC(C)(C)C(=O)C(Oc1cccc2nonc12)n1cncn1 (stereo not drawn)
- H5N1 antiviral: 0.2

New compounds follow.
structure	H5N1 antiviral
CN(C)S(=O)(=O)c1ccc(N2CCN(S(=O)(=O)c3ccc(F)cc3)CC2)c(Cl)c1	9.8
COc1ccc(S(=O)(=O)N2CCSC2c2ccc(N)cc2)cc1 (stereo not drawn)	0.6
O=C1CC(c2ccccc2)Cc2nc3ncnn3cc21 (stereo not drawn)	1.5
COc1ccc2nc(SCC(=O)Nc3ccccc3C#N)[nH]c2c1	0.7
CCOC(=O)C1=C(C)Nc2nnnn2C1c1ccc(OC)c(Br)c1 (stereo not drawn)	1.2
CC(C)CCOc1ccc(C2(C)NC(=O)N(CN3CCOCC3)C2=O)cc1 (stereo not drawn)	1.2
O=S(=O)(NCCc1csc(-c2cccnc2)n1)c1ccc(Cl)s1	2.7
Cc1cc(S(=O)(=O)NC2CCCCC2)ccc1OCC(=O)NCc1ccccn1	i
COc1ccccc1C/C(N)=N/OC(=O)COc1cccc2ccccc12	i
C/C(CC(=O)Nc1ccc(OCc2ccccc2)cc1)=N\NC(=O)C(=O)Nc1ccc(C)c(Cl)c1	i
O=C(/C=N/O)NCC1CCNCC1	i
C/C(=C\C(=O)c1ccncc1)Nc1ccccc1O	0.4
Cc1sc2nc3ccc(N4CCCCC4)nn3c(=O)c2c1C	5.6
CC1OC(Nc2ccc(OC(F)(F)F)cc2)C(O)C(O)C1O (stereo not drawn)	i
CN1CCN(S(=O)(=O)c2ccc(Sc3nnc(-c4cccs4)n3-c3ccccc3)nc2)CC1	3.6
Cc1ccc(Cn2nnc3c(=O)[nH]c(C4CCCN(C(=O)Nc5ccc(F)cc5F)C4)nc32)cc1 (stereo not drawn)	i
Cn1c(SCC(=O)Nc2nc3c(s2)CCCC3)nnc1-c1ccccc1	0.7
CCOC(=O)c1c(NC(=O)CSc2n[nH]c(N)n2)sc(CC)c1C	0.2
Brc1ccc(OCc2ccccc2)c(CNCc2ccncc2)c1	1.2
O=C1CSC(c2ccccn2)N1c1ccc(Cl)c(Cl)c1 (stereo not drawn)	i
CCCn1c(N2CCN(CC(=O)Nc3ccc4c(c3)OCCO4)CC2)nc2ccccc21	0.2
Cc1ccc(C(=O)NCC2CCCO2)cc1N1CCCC1=O (stereo not drawn)	i
Cc1ccc(NC(=O)Cn2cccc2)cc1C	i
CCN1C(=O)C(O)(CC(=O)c2cc(C)ccc2C)c2ccccc21 (stereo not drawn)	0.5
O=C(c1ccncc1)N(Cc1ccco1)Cc1cc2ccccc2[nH]c1=O	1.3
Cc1[nH][nH]c(=O)c1C(c1ccc(-c2ccc(Cl)cc2)o1)c1c(C)[nH][nH]c1=O	i
CCN(Cc1ccccc1)S(=O)(=O)c1ccc(S(=O)(=O)N(Cc2ccccn2)Cc2ccco2)cc1	i
COc1ccc(NS(=O)(=O)c2cc(-c3nnnn3C)ccc2OC)cc1	0.4
C=CCn1c2ccccc2c2nnc(SCCCn3c(=O)[nH]c4ccccc43)nc21	1.6
CC(C)(C)n1ncc2c(=O)n(CC(=O)NCc3ccccc3)cnc21	i
O=C(Nc1ccc2c(c1)OCO2)c1ccc(CN2CCOCC2)cc1	1.3

Not all compounds are listed. The share of hits here may be higher or lower than overall.
